VACV mCherry inh: inhibitors of vaccinia virus infection (mCherry reporter signal); Vaccinia virus mCherry reporter infection, fluorescence; about a quarter of the inactives have no number; Potency, µM (doses to about 36.5 µM), for the others: at the highest dose activity change, negative = inhibition, hits mostly inhibitors; 310,000 tested, 0.63% active; AID 720579; active = well fitted inhibition curve with a large enough effect; inconclusive = small, poorly fitted or top-dose-only effect; inactive = no such curve, though single readings can be large or run the other way; tested in A549 cells; note: nearly all actives have a fitted effect of over 35% in size; inactives centre near -10
VACV Venus inh: vaccinia inhibition (Venus reporter); 330,000 tested, 0.46% active; Potency, µM (series often up to 36.5 µM), for the others: at the top dose activity change, negative = inhibition, usual class: inhibitors; Vaccinia virus Venus reporter expression, fluorescence; active means well fitted inhibition curve with a large enough effect; inconclusive means small, poorly fitted or top-dose-only effect; inactive means no such curve, though single readings can be large or run the other way; tested in A549 cells; note: nearly all actives have a fitted effect of over 30% in size; inactives centre near -10
* = called active by the depositor; & = joins results of further samples; [ ] = another dose, or the depositor's remark. % is set by controls: 0 for no effect and ±100 for the full control effect; potency is the fitted concentration of half-maximal effect. Hits appear at their usual frequency (roughly 0.88% active in at least one column).

Start of the data: the first six records, to show the layout:
For CC(=O)Nc1ccc(Nc2ncnc3c2nnn3Cc2ccccc2Cl)cc1 the results were VACV mCherry inh -27% and VACV Venus inh -7%.
CC[n+]1c(/C=C/c2c[nH]c3ccccc23)ccc2cc(C)ccc21 was read as VACV mCherry inh inactive and VACV Venus inh inactive.
O=C(Nc1ccc(Br)cc1F)c1nc[nH]c1C(=O)N1CCc2ccccc2C1 was read as VACV mCherry inh inactive and VACV Venus inh -18%.
For CC(=O)Cc1nsc(NC(=O)c2ccco2)n1 the results were VACV mCherry inh -14% and VACV Venus inh -4%.
For CCOC(=O)c1ccc(NC(=O)c2cnn3c(=O)c4c(n(CC)c23)CCN(Cc2ccc(OC)cc2)C4)cc1 the results were VACV mCherry inh 4% and VACV Venus inh -8%.
For O=C(COc1cccc2c1CCN(Cc1ccccc1)C2=O)NCc1ccco1 the results were VACV mCherry inh 0% and VACV Venus inh -16%.

This part in full, repeating the preview:
For CC(=O)Nc1ccc(Nc2ncnc3c2nnn3Cc2ccccc2Cl)cc1 the results were VACV mCherry inh -27% and VACV Venus inh -7%.
CC[n+]1c(/C=C/c2c[nH]c3ccccc23)ccc2cc(C)ccc21 was read as VACV mCherry inh inactive and VACV Venus inh inactive.
O=C(Nc1ccc(Br)cc1F)c1nc[nH]c1C(=O)N1CCc2ccccc2C1 was read as VACV mCherry inh inactive and VACV Venus inh -18%.
For CC(=O)Cc1nsc(NC(=O)c2ccco2)n1 the results were VACV mCherry inh -14% and VACV Venus inh -4%.
For CCOC(=O)c1ccc(NC(=O)c2cnn3c(=O)c4c(n(CC)c23)CCN(Cc2ccc(OC)cc2)C4)cc1 the results were VACV mCherry inh 4% and VACV Venus inh -8%.
For O=C(COc1cccc2c1CCN(Cc1ccccc1)C2=O)NCc1ccco1 the results were VACV mCherry inh 0% and VACV Venus inh -16%.
For CC(C)c1ccc2oc(-c3ccc(NC(=O)c4cccc(Br)c4)cc3)nc2c1 the results were VACV mCherry inh -25% and VACV Venus inh -18%.
For CCOC(=O)C1CCCN(S(=O)(=O)c2cc3c4c(c2)CCN4C(=O)CC3)C1 (centres undefined) the results were VACV mCherry inh -14% and VACV Venus inh -14%.
Cc1nn2c(=O)[nH]cnc2c1Cl was read as VACV mCherry inh -3% and VACV Venus inh -2%.
`O=C(Nc1ccc2c(c1)OCO2)C1CCCCN1S(=O)(=O)c1ccccc1` (centres undefined) gave VACV Venus inh -13%.
For COc1ccc(-c2coc3cc(O)ccc3c2=O)cc1OC the results were VACV Venus inh 9%.
Oc1ccc(C[C@@H]2CNC(=S)N2CCc2cc(C(F)(F)F)cc(C(F)(F)F)c2)cc1 was read as VACV mCherry inh inactive and VACV Venus inh -5%.
`Cn1c(SCC(=O)Nc2nccs2)nnc1-c1ccco1` gave VACV Venus inh -8%.
For CCCSc1nnc(CNS(=O)(=O)c2ccc(C)cc2)n1C the results were VACV mCherry inh -14% and VACV Venus inh -10%.
For O=C(c1cc([N+](=O)[O-])cc([N+](=O)[O-])c1)N1CCCc2ccccc21 the results were VACV mCherry inh -16% and VACV Venus inh -11%.

In the list so far, two have fluorine.
O=C(Nc1ccc(Br)cc1F)c1nc[nH]c1C(=O)N1CCc2ccccc2C1 was read as VACV mCherry inh inactive and VACV Venus inh -18%.
Oc1ccc(C[C@@H]2CNC(=S)N2CCc2cc(C(F)(F)F)cc(C(F)(F)F)c2)cc1 was read as VACV mCherry inh inactive and VACV Venus inh -5%.

Going on with the list.
For COC(=O)c1cnc2c(c(C)nn2C)c1OC the results were VACV mCherry inh inactive and VACV Venus inh -3%.
`O=C(CCCN1C(=O)c2cccc3cccc(c23)C1=O)NCc1ccco1` gave VACV mCherry inh -26% and VACV Venus inh -3%.
`COc1ccc(C2NC3=C(CCC3)C3(C#N)C(OC)(OC)N=C(N)C23C#N)cc1` (centres undefined) gave VACV mCherry inh -12% and VACV Venus inh -8%.
For O=[N+]([O-])c1cc(Cl)c(O)c2ncccc12 the results were VACV mCherry inh inconclusive and VACV Venus inh inconclusive.
For C=CCn1c(C)cc(C(=O)COC(=O)c2ccc3c(c2)NC(=O)CS3)c1C the results were VACV mCherry inh inactive and VACV Venus inh -5%.
CSc1nnc(C)c(=O)n1COC(=O)c1ccc(S(=O)(=O)N(C)C)cc1 was read as VACV mCherry inh -4% and VACV Venus inh -2%.
O=C(NCc1ccccc1Cl)[C@@H]1CCCN1S(=O)(=O)c1ccc(Cl)cc1 was read as VACV mCherry inh -14% and VACV Venus inh -16%.
Cc1cccc(-c2noc(-c3cccnc3NCc3ccco3)n2)c1 was read as VACV mCherry inh -14% and VACV Venus inh -3%.
Screening COc1cccc(/C=N/c2sc(Cc3ccccc3)c(C)c2C(N)=O)c1O returned VACV mCherry inh -1% and VACV Venus inh -10%.
`COc1ccccc1CNC(=O)COC(=O)c1ccc(C)c(S(=O)(=O)N2CCCCC2)c1` gave VACV mCherry inh -13% and VACV Venus inh -6%.
Screening CCNC(=O)CSC1=N/C(=C\c2ccc(O)c(OCC)c2)C(=O)N1c1ccc(OC(F)F)cc1 returned VACV mCherry inh -8% and VACV Venus inh 45%[activator].
For COc1cc(C(C)=O)ccc1OCC(=O)N1CCc2ccccc2C1 the results were VACV mCherry inh -2% and VACV Venus inh 6%.
`COc1ccc(NS(=O)(=O)c2ccc(S(=O)(=O)N3CCCC3)cc2)cc1` gave VACV Venus inh -22%.
`CC(=O)Nc1cc2c(cc1NC(=O)c1cnccn1)OCCO2` gave VACV mCherry inh -12% and VACV Venus inh 3%.
Cn1cccc1/C=N/NC(=O)c1sc2ccccc2c1Cl was read as VACV Venus inh -24%.

The closing 5 entries of the part above open the next one.
Screening CCNC(=O)CSC1=N/C(=C\c2ccc(O)c(OCC)c2)C(=O)N1c1ccc(OC(F)F)cc1 returned VACV mCherry inh -8% and VACV Venus inh 45%[activator].
For COc1cc(C(C)=O)ccc1OCC(=O)N1CCc2ccccc2C1 the results were VACV mCherry inh -2% and VACV Venus inh 6%.
`COc1ccc(NS(=O)(=O)c2ccc(S(=O)(=O)N3CCCC3)cc2)cc1` gave VACV Venus inh -22%.
`CC(=O)Nc1cc2c(cc1NC(=O)c1cnccn1)OCCO2` gave VACV mCherry inh -12% and VACV Venus inh 3%.
Cn1cccc1/C=N/NC(=O)c1sc2ccccc2c1Cl was read as VACV Venus inh -24%.
Screening Cc1ccc(C(O)CN2C3=NCCCN3c3ccccc32)cc1 (centres undefined) returned VACV mCherry inh -23% and VACV Venus inh -29%.
`Cc1ccc2cc(COC(=O)c3ccncc3)c(=O)[nH]c2c1` gave VACV mCherry inh 2% and VACV Venus inh 6%.
Screening CC(=O)Nc1cccc2cc(O)ccc12 returned VACV mCherry inh -2% and VACV Venus inh 11%.
For COC(=O)CCC(=O)Nc1nnc(C(F)(F)F)s1 the results were VACV mCherry inh -7% and VACV Venus inh -8%.
`O=C(Nc1ccc(-c2ccccc2)cc1)c1ccco1` gave VACV mCherry inh -3% and VACV Venus inh -14%.
For C=CC[C@@H](CC(=O)NCCO)C(=O)N[C@H](C)COC(=O)[C@@H](CC=C)Cc1ccc(F)cc1 the results were VACV mCherry inh -2% and VACV Venus inh -27%.
`CC(=O)N1CCc2cc(S(=O)(=O)C(C)CC(=O)NCc3ccco3)ccc21` (centres undefined) gave VACV mCherry inh -5% and VACV Venus inh 0%.
For COc1ccc(OC)c(CCNC(=O)c2cc3c(s2)-c2c(C)cccc2OC3)c1 the results were VACV mCherry inh -13% and VACV Venus inh 1%.
For COC(=O)C1=C(C)N(Cc2cccnc2)C(=O)/C1=C\c1sccc1C the results were VACV mCherry inh inconclusive and VACV Venus inh -17%.
For Cc1ccc(NC(=O)CCc2c(C)nn(-c3ccc(N4CCCCC4)nn3)c2C)cc1F the results were VACV mCherry inh -2%&-1% and VACV Venus inh -17%&-6%.
COc1ccc(C(=O)/C=C\N2CCOCC2)cc1 was read as VACV mCherry inh -10% and VACV Venus inh -3%.
COc1ccc(C(=O)N2CCC(N3CCN(c4ccccc4)CC3)CC2)cc1 was read as VACV Venus inh -28%.
`COc1ccc(Cl)cc1NC(=O)CN1CCN(S(=O)(=O)N2CCCCC2)CC1` gave VACV mCherry inh -14% and VACV Venus inh 0%.
`Nc1ncnc2c1ncn2[C@@H]1O[C@H](C(=O)NCc2ccc3c(c2)OCO3)[C@@H](O)[C@H]1O` gave VACV mCherry inh 31%[activator] and VACV Venus inh 11%.
Screening O=C(Cc1ccc(Cl)cc1)Nc1ccc2oc(-c3ccccc3F)nc2c1 returned VACV mCherry inh inconclusive and VACV Venus inh inconclusive.
CCC(=O)N1CCc2cc(S(=O)(=O)NC(Cc3ccccc3)C(=O)NC3CCCCC3)ccc21 (centres undefined) was read as VACV mCherry inh -9% and VACV Venus inh 1%.
`Cc1nc(-c2ccccc2)sc1C1(C)CC(c2ccc([N+](=O)[O-])cc2)=NO1` (centres undefined) gave VACV mCherry inh inconclusive and VACV Venus inh -17%.
`O=C(NC1CCCCCCC1)c1ccc(Br)o1` gave VACV mCherry inh 4% and VACV Venus inh -3%.
CCc1cccc(NC(=O)CCc2nc3cccnc3n2-c2ccccc2)c1 was read as VACV mCherry inh -16% and VACV Venus inh -13%.
Screening Cc1[nH]c(=O)[nH]c(=O)c1NS(=O)(=O)c1ccccc1 returned VACV mCherry inh inactive and VACV Venus inh -12%.
Screening C=CCOc1cccc(CNn2cn[nH]c2=S)c1 returned VACV mCherry inh inactive and VACV Venus inh -10%.
For O=C(NCc1cccnc1)c1ccc(-c2ccccc2[N+](=O)[O-])o1 the results were VACV mCherry inh -11% and VACV Venus inh -14%.
For O=C1OCCN1CCNCc1cn(-c2ccc(F)cc2)nc1-c1ccccc1Cl the results were VACV mCherry inh -4% and VACV Venus inh -19%.
CCOC(=O)C1(C)CCCCN1C(=O)c1ccccc1OC (centres undefined) was read as VACV mCherry inh 32%[activator] and VACV Venus inh 6%.
For CCCCNC(=O)c1cnn2c(C)c(Cc3c(C)cc(C)cc3C)c(C)nc12 the results were VACV mCherry inh -15% and VACV Venus inh inconclusive.
`O=C(CN1CCN(C2CCCCC2)CC1)c1ccc2cc[nH]c2c1` gave VACV mCherry inh -33% and VACV Venus inh -1%.
CSc1nnc(Cn2c(=O)sc3ccccc32)n1-c1ccccc1C was read as VACV mCherry inh -9% and VACV Venus inh -4%.
`Oc1cccc(CN2CCCCC2)c1` gave VACV mCherry inh -7% and VACV Venus inh -6%.
CN1CCN(c2ccccc2NC(=O)c2ccc(-c3cccc([N+](=O)[O-])c3)o2)CC1 was read as VACV mCherry inh inactive and VACV Venus inh inconclusive.
For CCN(CC)S(=O)(=O)c1ccc(/C=C/C(=O)OCC(=O)N(C(C)C)C(C)C)cc1 the results were VACV mCherry inh 2% and VACV Venus inh -3%.
`Cc1cccc(NC(=O)CCn2c(=O)oc3ccccc32)c1` gave VACV mCherry inh inactive and VACV Venus inh -1%.
For Cc1ccc(-c2noc(-c3ccc(NCc4ccco4)c([N+](=O)[O-])c3)n2)cc1 the results were VACV mCherry inh -11% and VACV Venus inh -7%.
CCn1c(SCC(=O)N2CCCCC2)nc2c([nH]c3ccccc32)c1=O was read as VACV mCherry inh inactive and VACV Venus inh -19%.
`Cn1c(=O)c2c(O)c([N+](=O)[O-])c(=O)n(C)c2n(C)c1=O` gave VACV mCherry inh inactive[7.34 µM] and VACV Venus inh -2%[7.34 µM].
For COc1ccc(Cn2c(C(=O)O)c(CNCCc3cc(OC)ccc3OC)c3ccc(C)cc32)cc1 the results were VACV mCherry inh -9% and VACV Venus inh -15%.
Screening COc1ccc(-c2nc(C(=O)Nc3cccc(C(C)=O)c3)nn2-c2ccc(Cl)cc2)cc1 returned VACV mCherry inh -3% and VACV Venus inh -8%.
`CCC(=O)NCCc1nc2cc(NC(=O)c3cccc([N+](=O)[O-])c3)ccc2n1C` gave VACV mCherry inh -10% and VACV Venus inh -3%.
Screening O=C(NCC1CCCO1)c1cccnc1Nc1ccccc1F (centres undefined) returned VACV mCherry inh -8% and VACV Venus inh -1%.
Screening CC(C)NC(=O)NC(=O)COC(=O)c1ccc(F)cc1F returned VACV mCherry inh -4% and VACV Venus inh 2%.
For CCN(CC)S(=O)(=O)c1cccc(-c2n[nH]c(=S)n2/N=C/c2ccc(OC)cc2)c1 the results were VACV mCherry inh -11% and VACV Venus inh -11%.
For O=C1C2CCCCN2C(=O)N1CCCN1CCN(c2ccc(F)cc2)CC1 (centres undefined) the results were VACV mCherry inh inactive and VACV Venus inh -17%.
`CC(C)NC(=O)N(C)C[C@H]1Oc2c(NC(=O)Cc3ccccc3)cccc2C(=O)N([C@H](C)CO)C[C@@H]1C` gave VACV mCherry inh inactive and VACV Venus inh -16%.
Screening Cc1ccc(/C=C(\NC(=O)c2ccccc2)C(=O)N2CCCC2C(=O)O)cc1 (centres undefined) returned VACV mCherry inh inactive and VACV Venus inh -9%.
For S=c1[nH]cnc2scc(-c3ccc(Br)cc3)c12 the results were VACV mCherry inh -8% and VACV Venus inh -25%.
`CC(Sc1cccc[n+]1[O-])C(=O)Nc1ccc(Oc2ccccc2)cc1` (centres undefined) gave VACV mCherry inh -3% and VACV Venus inh -9%.
Screening Cc1nnc(NC(=O)c2ccc(S(=O)(=O)N(C)c3ccccc3)cc2)s1 returned VACV mCherry inh -3% and VACV Venus inh -14%.
CC1CCN(C(=O)C2Cc3ccccc3CN2S(=O)(=O)c2ccc(F)cc2)CC1 (centres undefined) was read as VACV mCherry inh -16%[1.46 µM] and VACV Venus inh -11%.
For O=C(c1ccco1)N1CCN(CCCCOc2cccc3ccccc23)CC1 the results were VACV mCherry inh -15% and VACV Venus inh -9%.
`Cc1ccc(-n2nc(C(=O)O)c(O)cc2=O)cc1` gave VACV mCherry inh -14% and VACV Venus inh 2%.
